INS promoter inh = TRM-6 insulin promoter activity inhibition. TRM-6 cells (human fetal islet line), insulin promoter-eGFP reporter, imaging; reporter expression induced with tamoxifen. inhibition, % at 2 µM. hit rate 0.9% among 130,000. AID 1273;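 active = inhibition above the mean plus 3 SD, with well images judged a real hit on visual review, cut at about 60% in these data, passing the limit was not always enough; inconclusive = inhibition over the cutoff but images rejected on review; inactive = inhibition not above the cutoff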
RGS16-Gao = modulates binding between human RGS16 and Galphao | bead-based flow cytometry RGS16-Galphao binding, fluorescence; actives lie on both sides | O15492+P09471 | binding response (% of control), % at 10 µM | hit rate 0.38% among 220,000;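 active = below 25% or above 175%, edge rows of some plates excepted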;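 note: Galphao activated by GDP with aluminum fluoride before binding; 100% = wells without compound and 0% = beads without RGS; some results beyond the cut were filed as inactive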
PKD1 kinase inh = inhibitors of human PKD1 kinase | Q15139 | PKD1 kinase fluorescence polarization assay | inhibition, %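 (about 10 µM by stock and volumes)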 | hit rate 0.056% among 200,000 | AID 797;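 active = inhibition of 50% or more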;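 note: controls were vehicle for no effect and a reference inhibitor for full effect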
Target sequence (Q15139 whole entry, looked up): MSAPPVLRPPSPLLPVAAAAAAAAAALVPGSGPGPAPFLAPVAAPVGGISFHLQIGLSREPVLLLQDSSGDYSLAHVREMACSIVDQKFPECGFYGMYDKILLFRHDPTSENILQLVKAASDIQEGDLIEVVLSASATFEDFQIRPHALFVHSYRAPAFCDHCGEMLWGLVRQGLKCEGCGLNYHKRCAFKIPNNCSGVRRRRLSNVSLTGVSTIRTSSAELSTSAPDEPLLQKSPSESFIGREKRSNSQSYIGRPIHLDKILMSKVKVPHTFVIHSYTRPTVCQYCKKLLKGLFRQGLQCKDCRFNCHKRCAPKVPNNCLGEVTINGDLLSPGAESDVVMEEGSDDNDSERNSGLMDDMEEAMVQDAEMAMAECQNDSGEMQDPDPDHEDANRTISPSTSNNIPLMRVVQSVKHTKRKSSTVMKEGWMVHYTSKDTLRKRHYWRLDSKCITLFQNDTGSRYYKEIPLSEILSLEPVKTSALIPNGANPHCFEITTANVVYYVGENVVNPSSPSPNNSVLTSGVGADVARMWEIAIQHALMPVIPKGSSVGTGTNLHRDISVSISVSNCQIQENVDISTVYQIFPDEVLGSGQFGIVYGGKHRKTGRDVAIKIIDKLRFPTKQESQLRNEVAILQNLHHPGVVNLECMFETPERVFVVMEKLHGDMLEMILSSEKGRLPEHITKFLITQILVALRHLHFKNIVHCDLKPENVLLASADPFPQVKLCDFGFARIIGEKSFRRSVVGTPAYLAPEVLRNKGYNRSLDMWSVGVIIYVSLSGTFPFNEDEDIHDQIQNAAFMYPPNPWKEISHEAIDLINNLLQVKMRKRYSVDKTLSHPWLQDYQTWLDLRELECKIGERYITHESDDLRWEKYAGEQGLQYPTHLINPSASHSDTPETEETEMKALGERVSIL
GALR2 ag = GALR2 (human) receptor agonism | GALR2-expressing cells, agonist activation read-out | activation, %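 (tested at 5 µM)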 | hit rate 0.48% among 140,000;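 active = above mean plus 3 SD of all compounds, about 5% in these data, not always enough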;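 note: 0% = vehicle buffer wells and 100% = reference agonist at full effect; tested in CHO reporter cells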
HSV replic up = HSV replication enhancement; HSV replication augmentation in cells, fold increase; maximum fold increase; hit rate 0.005% among 220,000;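 active = peak rise of 1.5-fold or more in the series; inconclusive = self-fluorescent or not available for retest; tested in PC3 cells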;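 note: first round at 10 µM; read as green reporter fluorescence; hits show the peak of a series up to 25 µM; 1 = signal of infected wells without compound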
INS promoter inh cell count = further read-out of INS promoter inh, marked with its call; normalized cell count, %; measured here: cell count, toxicity; reference of the scale not given here;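 cells exposed to compound for 48 h; stained nuclei by imaging scaled within each plate; lower means fewer cells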
HSV replic up primary fold = second read-out of HSV replic up, no call of its own (marks repeat the call); fold increase; compound at 10 µM; measured here: primary screen fold increase 10 uM; tested in PC3 cells;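 GFP signal in the first replicate; 1 = infected wells without compound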
* hit, by the source's call; i = inactive; ? = inconclusive; . = no result given. No enrichment for hits (roughly 1.3% active in at least one column).

compound,INS promoter inh,INS promoter inh cell count,RGS16-Gao,PKD1 kinase inh,GALR2 ag,HSV replic up,HSV replic up primary fold
Cc1nnc(SCC(=O)N2CCN(c3ccccc3)CC2)n(N)c1=O,31,112,101,-9,.,i,0.86
CCCn1nnnc1SCC(=O)NCc1ccc(OC)cc1,19,118,69,14,-1.3,i,0.89
CCOc1cccc(C2C(C#N)=C(N)Oc3cc(C)oc(=O)c32)c1OCC (configuration not stated),82*,98*,102,18,-2.1,i,1.2
CNC(=S)N/N=C(\C)c1ccc(Cl)s1,.,.,122,1,-0.8,i,0.78
CCOC(=O)N1CCN(C(=O)COc2ccccc2Cl)CC1,26,77,117,-21,-1.9,i,0.8
C=CCn1c(SCc2csc(C)n2)nc2sc3c(c2c1=O)CCCC3,71*,75*,104,-4,-2.3,.,.
O=c1[nH]c2ccsc2c(=O)n1-c1ccc(F)c(Cl)c1,.,.,93,-12,-2.8,i,0.98
CN(CC(=O)N1CCc2ccccc21)S(=O)(=O)c1ccc(Br)s1,-12,74,101,-4,-3.4,i,0.72
CCOC(=O)N1CCN(C(=O)c2cn(CC)c3ccc(S(=O)(=O)N4CC(C)CC(C)C4)cc3c2=O)CC1 (configuration not stated),-50,186,103,-3,.,.,.
CCN(C(=O)COc1ncnc2scc(-c3ccc(F)cc3)c12)C1CCS(=O)(=O)C1 (configuration not stated),-114,81,100,2,-0.5,i,0.84
CC(Cc1cccs1)NC(=O)NC1CCCCC1 (configuration not stated),.,.,101,-5,-1.4,i,0.69
CC(C)(Cc1nc2ccccc2[nH]1)C(=O)O,53,104,101,0,-0.9,i,1.2
CCc1ncc(C(=O)c2ccc(OC)cc2)n1C,.,.,101,-12,-1.1,i,0.9
CC(/C=C/c1ccccc1)=N/NC(=O)C(O)c1ccccc1 (configuration not stated),3,95,102,-1,-0.7,i,0.97
Cn1c(=O)c2c(nc(N3CCCCC3)n2CCSc2nc3ccccc3o2)n(C)c1=O,59,150,.,4,-2.0,.,.
Nc1ncnc(NC2CCS(=O)(=O)C2)c1[N+](=O)[O-] (configuration not stated),.,.,86,.,.,i,0.86
COC(=O)c1nnn(-c2ccc(F)c(Cl)c2)c1C(=O)OC,.,.,101,8,.,i,0.96
COCCNCCOc1ccccc1-c1ccccc1,-47,89,105,-2,1.9,i,0.9
Cc1cc(C(=O)COc2ccc3ccc(=O)oc3c2)c(C)n1C,.,.,98,0,.,i,0.88
CC(NC(=O)CC1Sc2ccccc2NC1=O)c1ccccc1 (configuration not stated),44,102,102,-3,.,i,0.91
CC(Sc1ncc(C(F)(F)F)cc1Cl)C(=O)NCC1CCCO1 (configuration not stated),.,.,107,-7,.,i,0.9
O=C(CNc1ccc2ccccc2c1)N/N=C/c1ccc(OC(=O)/C=C/c2ccco2)cc1,-75,104,102,2,-1.0,i,0.95
NC(=O)/C(=N\O)c1ccccc1,.,.,105,-2,-1.7,i,1
Cc1onc(-c2ccccc2Cl)c1C(=O)N1C=CC(C(F)(F)F)=NCC1,-44,104,101,0,-2.6,i,0.94
O=C(c1ccco1)N1CCN(c2ncnc3c2cnn3-c2ccccc2)CC1,.,.,99,-1,-0.2,i,1
COC(=O)CN(c1ccccc1)S(=O)(=O)c1ccccc1,.,.,.,-1,-0.9,i,0.81
COc1ccc(NC(=S)Nc2ccccn2)cc1,.,.,105,.,.,i,1.1
Cc1cc(C)n(-c2ncccc2[N+](=O)[O-])n1,.,.,102,.,.,i,0.89
O=C1OCC/C1=C\OCCCO/C=C1\CCOC1=O,.,.,96,.,.,i,1
Cn1c(=O)[nH]c(=O)c2c1nc(N1CCN(Cc3ccccc3)CC1)n2CCCc1ccccc1,-28,60,106,3,0.8,i,0.74
O=C(CC(CC(=O)c1ccc(Br)cc1)c1cccnc1)c1ccc(Br)cc1,.,.,100,.,.,i,0.99
COc1ccc(C)cc1S(=O)(=O)Nc1ccc(F)c(Cl)c1,-24,223,99,-11,-1.4,i,1.1
O=C(CN(CC1CCCO1)C(=O)CNS(=O)(=O)c1ccccc1)NCc1ccccc1 (configuration not stated),-29,65,94,1,-0.7,i,1.2
O=S(=O)(c1cccc(-c2nnc(SCc3nc4ccccc4s3)o2)c1)N1CCOCC1,-71,94,98,7,-1.6,.,.
COc1ccc(Cl)cc1/C=C(\C#N)C(N)=O,21,100,105,-5,.,i,0.85
COc1cccc(-n2c(COc3ccc(C)cc3)nnc2SCC(=O)O)c1,-56,59,117,0,-1.4,i,0.93
O=C(Nc1ccc2c(c1)OCCO2)c1cc(-c2ccccc2)nc2ccccc12,6,119,99,0,-1.4,i,0.83
O=c1[nH]nc(-c2ccccc2)c2ccccc12,.,.,97,.,.,i,1.1
Nc1nc(SCC(=O)N2CCCc3ccccc32)n(-c2ccccc2)n1,.,.,103,0,-2.6,i,0.94
CCOC(=O)C1=C(C)NC(C)=C(C(=O)OCC)C1C(=O)OCC(=O)N1CCC(C)CC1,-9,87,95,-4,-1.1,i,1
Cn1cnc(NCc2ccccc2)c1[N+](=O)[O-],.,.,104,.,.,i,0.94
O=C(Nc1ccc2c(c1)Cc1ccccc1-2)c1cc2ccccc2o1,-19,102,.,5,-1.0,i,1
O=C(O)c1cccc(C(=O)Nc2cccc(NC(=O)C3CCCO3)c2)c1 (configuration not stated),22,69,94,-10,-0.6,i,1
O=C(CC1(O)C(=O)Nc2cc(Cl)cc(Cl)c21)c1ccncc1 (configuration not stated),.,.,93,-5,-1.2,i,0.93
Cc1cc(C)c(NC(=O)c2sc3nc(C)[nH]c(=O)c3c2C)c(C)c1,.,.,103,1,.,i,0.96
CCOc1ccccc1N=c1oc2cc(O)ccc2cc1C(=O)NCC1CCCO1 (configuration not stated),26,25,104,-2,66*,i,0.97
COc1ccc(C(=O)CSc2[nH]c(=O)cc(C(F)(F)F)c2C#N)cc1,.,.,98,.,.,i,0.97
CCOc1ccc(-c2cn3ccccc3n2)cc1,.,.,103,-4,.,i,0.95
CC12C=CC3(O1)C(C(=O)N(c1cccnc1)C3C(=O)NC1CCCCC1)C2C(=O)Nc1ccccc1 (configuration not stated),18,121,100,-5,0.0,i,1
CSc1nc(O)c(C(c2cccc([N+](=O)[O-])c2)c2c(O)nc(SC)[nH]c2=O)c(=O)[nH]1,-50,176,103,-3,.,i,0.99
CCOc1ccc(S(=O)(=O)NC(C)(C)C)cc1-c1nc2c(C(C)(C)C)nn(C)c2c(=O)[nH]1,-17,99,100,-1,3.5,i,0.71
CC(C)(C)NC(=O)C(=O)NNC(=O)c1cccc(Br)c1,.,.,97,-7,.,i,0.96
CCC(c1nnc(SCC(=O)N2CCOCC2)n1C1CCCCC1)N(C)C (configuration not stated),.,.,100,.,.,i,0.97
NS(=O)(=O)c1ccc(CCNC(=O)CSc2ccc3ccccc3c2)cc1,.,.,95,-2,.,i,0.91
Cc1ccc(C(=O)Nc2nc3ccccc3n2CCN2CCCC2)cc1,.,.,107,1,-1.0,i,0.92
CCOC(=O)N1CCN(C(=O)CCl)CC1,16,96,101,-2,.,i,1.1
Cc1ccc2nc(-c3ccco3)c(Nc3ccccc3)n2c1,0,63,73,-6,0.0,i,1
OC(COCc1ccc2c(c1)OCO2)CN1CCCCC1 (configuration not stated),29,161,113,-8,.,.,.
O=C(O)CCCCCNC(=O)c1ccccc1,-7,146,100,5,3.9,i,1
CC(C)CC(NC(N)=O)C(=O)NCCc1ccc(Cl)cc1 (configuration not stated),-43,102,103,-5,.,i,1

Overlap with the part before: six compounds, followed by the next part.
compound,INS promoter inh,INS promoter inh cell count,RGS16-Gao,PKD1 kinase inh,GALR2 ag,HSV replic up,HSV replic up primary fold
Cc1ccc(C(=O)Nc2nc3ccccc3n2CCN2CCCC2)cc1,.,.,107,1,-1.0,i,0.92
CCOC(=O)N1CCN(C(=O)CCl)CC1,16,96,101,-2,.,i,1.1
Cc1ccc2nc(-c3ccco3)c(Nc3ccccc3)n2c1,0,63,73,-6,0.0,i,1
OC(COCc1ccc2c(c1)OCO2)CN1CCCCC1 (configuration not stated),29,161,113,-8,.,.,.
O=C(O)CCCCCNC(=O)c1ccccc1,-7,146,100,5,3.9,i,1
CC(C)CC(NC(N)=O)C(=O)NCCc1ccc(Cl)cc1 (configuration not stated),-43,102,103,-5,.,i,1
Cc1cccc(C(=O)NC(=S)NCc2cccnc2)c1,-16,113,105,-14,-0.8,i,0.92
COCCNc1nnnc2c1sc1nc(N3CCOCC3)c3c(c12)CCCC3,26,103,100,9,.,i,0.97
CCC1(C)Cc2c(sc3c2c(=O)n(C)c2nnc(SCC(=O)c4ccc(Cl)cc4)n32)CO1 (configuration not stated),-21,98,.,5,-0.3,.,.
O=C(CSC1=NCCN1)NC(c1ccccc1)c1ccccc1,.,.,98,-9,.,i,0.83
CCOc1ncccc1C(=O)Nc1ncc(C)s1,.,.,101,3,.,i,1
O=C(NCc1cccs1)c1ccc(CS(=O)(=O)c2ccc(Cl)cc2)o1,-37,126,99,4,-0.5,i,1.2
Cc1ccc(NC(=O)CN(C)C(=O)c2n[nH]c(=O)c3ccccc23)cc1,.,.,116,7,.,i,0.8
Cc1cc(C(F)(F)F)c2c(n1)sc1c(O)cc(=O)[nH]c12,-29,64,24,-3,-0.5,i,0.8
Cc1cccc(C(=O)NC(NCCc2ccccc2)C(Cl)(Cl)Cl)c1 (configuration not stated),.,.,112,11,-4.5,i,0.96
CCOCc1nnc(NC(=O)C2c3ccccc3Oc3ccccc32)s1,20,128,97,-6,.,i,0.81
N#Cc1cc2c(=O)n3ccccc3nc2n(-c2ccc(Cl)cc2)c1=O,.,.,102,-11,.,i,0.96
COc1ccc(OCC(=O)Nc2cccc(-c3nc4ccccc4o3)c2)cc1,.,.,107,-9,-1.7,i,0.97
CN(C)c1cccc(C(=O)Nc2ccc(N3CCOCC3)cc2)c1,-5,148,49,-3,-1.7,i,0.73
NN/C(=C\[N+](=O)[O-])Nc1ccc(Cl)cc1,.,.,99,1,.,i,1
O=C(N/C(=C/c1ccco1)C(=O)N1CCc2ccccc21)c1ccco1,.,.,86,.,.,?,.
CCOc1ccc(-c2nnc(Nc3ccc(OC)c(C(=O)N4CCCCC4)c3)c3ccccc23)cc1,.,.,96,5,0.0,i,0.93
Cc1c(NC(=O)c2cc(=O)[nH]c(=O)[nH]2)c(=O)n(-c2ccccc2)n1C,45,129,101,0,-1.7,i,0.89
Cc1ccc(C(=O)C2CCN(C(=S)NCC3CCCO3)CC2)cc1 (configuration not stated),25,65,99,3,.,i,1
COc1ccc(CCNC(=O)CSc2nc(O)cc(=O)[nH]2)cc1OC,.,.,100,.,.,i,0.97
Cc1cc(C(=O)COC(=O)CC2Sc3ccccc3NC2=O)c(C)n1-c1ccc2c(c1)OCO2 (configuration not stated),4,104,99,-4,-1.0,i,0.87
CC(C)(C)n1ncc2c(=O)n(Cc3c(F)cccc3Cl)cnc21,-33,67,96,-38,-1.9,i,0.98
O=C(NCC(c1ccc(F)cc1)N1CCOCC1)c1cccc(Br)c1 (configuration not stated),.,.,101,-8,.,i,1
COC(=O)COc1ccc(/C=C2/SC(=O)N(CC(=O)N3CCCC3)C2=O)cc1Br,.,.,105,-11,0.6,i,0.95
COc1ccc(NC(=O)CC2Oc3ccc(C)cc3NC2=O)cc1 (configuration not stated),.,.,101,3,-2.7,i,0.9
Cc1cccc(-c2nnc(SCC(=O)N3c4ccccc4CCc4ccccc43)n2C)c1,-32,69,109,2,-0.4,i,0.88
Cc1ncccc1C(=O)N1CCCC(C(=O)c2ccc3c4c(cccc24)CC3)C1 (configuration not stated),.,.,104,2,.,i,0.87
COC(=O)c1c(C)[nH]c(C(=O)CSc2nnnn2-c2ccccc2)c1C,25,136,101,-2,99*,.,.
COc1ccc(OC)c(C(=O)C2COC(=O)C2)c1 (configuration not stated),-20,76,101,-4,-1.8,i,0.93
